2A firefly: Primary qHTS Assay for Foot and Mouth Disease Virus Antivirals against NCGC Sytravon and CBC Compound Libraries: Firefly Luciferase Signal; Potency, µM (titrated, usually from 57.5 µM), inactives show at the top dose signal change, negative = less light; HEK cells with a luciferase reporter of 2A StopGo recoding; 120,000 tested, 0.23% active; AID 1745856, 2022; active = well fitted falling curve with a large enough effect; inconclusive = small, poorly fitted or top-dose-only effect; inactive = no such curve, though single readings can be large or run the other way; further: nearly all actives have a fitted effect of over 60% in size; overnight with compound
2A Renilla: Primary qHTS Assay for Foot and Mouth Disease Virus Antivirals against NCGC Sytravon and CBC Compound Libraries: Renilla Luciferase Signal. HEK cells with a luciferase reporter of 2A StopGo recoding. Potency, µM (highest dose often 57.5 µM), inactives show at the top dose signal change, negative = less light. 120,000 tested, 0.32% active. AID 1745857, 2022; active means well fitted falling curve with a large enough effect; inconclusive means small, poorly fitted or top-dose-only effect; inactive means no such curve, though single readings can be large or run the other way; further: nearly all actives have a fitted effect of over 55% in size; overnight with compound
Starred values were filed as active, the others as inactive; ? = inconclusive; [ ] = another dose, or the depositor's remark. On the % scale 0 is the no-effect control and ±100 the full control effect; potency means the concentration at half of the fitted maximal effect. Not all compounds are listed; rates above refer to the full screens.

SMILES	2A firefly	2A Renilla
COc1ccc(NC(=O)CCc2c[nH]c3ccccc23)cc1OC	-3%	-9%
O=C(Cn1nc(-c2ccccc2)c2ccccc2c1=O)N1CCCCC1	8%	-2%
COc1ccc(NC(=O)c2c(NCc3cccs3)sc3c2CCCC3)cc1	2%	8.9µM*
Cc1cc(C(=O)OC(C)C(=O)Nc2ccc(F)cc2Cl)c(C)o1 (stereo not given)	35%[activator]	17%
CN(C(=O)CCc1ncc(-c2ccc(Cl)cc2)o1)C1C2CC3CC(C2)CC1C3 (stereo not given)	0%	2%
Fc1ccccc1NC(=S)NCCC(c1ccccc1)c1ccccc1	19%	290%[activator]
O=C(Nc1ccc(O)c(-c2nc3ccccc3o2)c1)c1ccc(-c2cccc(Cl)c2)o1	-12%	-8%
CCc1c(C(=O)NC(C)c2ccc(OC)c(OC)c2)csc1C (stereo not given)	9%	21%
NC(Cc1ccccc1)c1nnc(SCc2ccccc2)o1 (stereo not given)	86%[activator]	34%[activator]
Cc1nc2cc(-c3cccc(F)c3)nn2c(C)c1CCC(=O)NC(C)c1ccccc1 (stereo not given)	?	-9%
CCOc1ccc(CNC(=O)c2cnc(SC)nc2C)cc1	?	?
COC(=O)c1ccc(OCC(=O)c2ccc3c(c2)OCO3)c(OC)c1	4%	55%[activator]
CCC(C(=O)Nc1ccccc1OCc1cc(=O)n2cccc(C)c2n1)c1ccccc1 (stereo not given)	-6%	-2%
COc1ccc(Cc2nc3c4c(ncn3n2)Oc2cc(O)ccc2C4c2ccc(OC)cc2)cc1 (stereo not given)	-9%	-1%
CC(=O)c1c(C)oc2c1cc(NS(=O)(=O)c1c(C)cc(C)cc1C)c1ccccc12	128%[activator]	10%
COC(=O)Cn1c(Br)nc2c1c(=O)n(C)c(=O)n2C	-7%	-14%
CCc1ccc(N2C(=O)c3c(C(=O)OC)ncn3CC2(C)C(=O)NC2CCCCCC2)cc1 (stereo not given)	20%	12%
CCOc1ccc(C2c3c(-c4ccccc4O)n[nH]c3C(=O)N2Cc2ccncc2)cc1 (stereo not given)	2%	143%[activator]
O=C(Nc1ccc(Br)cc1)c1nc2ccccc2nc1N1CCCCC1	-4%	-3%
O=C(Nc1ccccc1-c1ccccc1)c1ccccc1C(F)(F)F	-6%	0%
CCCN(CCC)CCCNC(=O)C1CCCN(Cc2nc(-c3ccc(Cl)cc3)oc2C)C1 (stereo not given)	30%[activator]	-16%
COC(=O)c1ccc(Oc2nc(N(C)C)nc(N3CCCCC3)n2)cc1	15%	28%
Cc1ccc2occ(-c3cc(-c4ccccc4)nc4c3COc3ccccc3-4)c(=O)c2c1	-6%	-7%
CCOc1ccc(CNC(=O)c2cnc3sc(N(CC)CC)nn3c2=O)cc1	0%	19%
CCCCCCCCOc1ccc(C(=O)Oc2ccc(C#N)cc2)cc1	18%	8%
CCOC(=O)C1=C(CNCc2ccc(C)cc2)NC(=O)NC1c1cc(C)ccc1C (stereo not given)	-25%	-21%
O=C(Cn1ccc2cc(Cl)ccc21)Nc1ccc2c(c1)OCO2	0%	197%[activator]
O=C(NC(Cc1ccccc1)C(=O)N1CCN(c2ccccc2)CC1)c1ccco1 (stereo not given)	16%	20%
CCCS(=O)(=O)c1c(S(=O)(=O)CCC)c2cc(C(C)(C)C)ccn2c1C(=O)c1ccc(OC)c(OC)c1	-15%	-11%
COc1ccc(C(CNC(=O)c2n[nH]c(=O)c3ccccc23)N(C)C)cc1 (stereo not given)	?	?

2 entries from above, reformatted:
| structure | 2A firefly | 2A Renilla |
| --- | --- | --- |
| COC(=O)c1ccc(Oc2nc(N(C)C)nc(N3CCCCC3)n2)cc1 | 15% | 28% |
| Cc1ccc2occ(-c3cc(-c4ccccc4)nc4c3COc3ccccc3-4)c(=O)c2c1 | -6% | -7% |

Pulled one by one from the list above:
SMILES	2A firefly	2A Renilla
CCOc1ccc(CNC(=O)c2cnc3sc(N(CC)CC)nn3c2=O)cc1	0%	19%
COC(=O)c1ccc(OCC(=O)c2ccc3c(c2)OCO3)c(OC)c1	4%	55%[activator]
COC(=O)Cn1c(Br)nc2c1c(=O)n(C)c(=O)n2C	-7%	-14%
CCc1c(C(=O)NC(C)c2ccc(OC)c(OC)c2)csc1C (stereo not given)	9%	21%
O=C(NC(Cc1ccccc1)C(=O)N1CCN(c2ccccc2)CC1)c1ccco1 (stereo not given)	16%	20%
COc1ccc(Cc2nc3c4c(ncn3n2)Oc2cc(O)ccc2C4c2ccc(OC)cc2)cc1 (stereo not given)	-9%	-1%

Continuation:
SMILES	2A firefly	2A Renilla
CCOc1ccccc1N1CC(c2nc3ccccc3n2CCOc2ccccc2OC)CC1=O (stereo not given)	-14%	8%
O=C(NCc1ccc(Cl)cc1)C(=O)Nc1ccc(Cl)c(C(F)(F)F)c1	18%	6%
CCOC(=O)c1ccc(N2CCN(c3ccc(F)cc3)CC2)c(NC(=O)Nc2ccc(CC)cc2)c1	-3%	-18%
Cc1ccc(C(C)(C)C)c(OCC(=O)NCCc2nc3ccccc3[nH]2)c1	-16%	-8%
CC(Nc1oc(-c2ccc(COc3ccc(Cl)cc3)o2)nc1C#N)c1ccccc1 (stereo not given)	-12%	-12%
COc1ccc(-c2c(C(F)(F)F)oc3cc(OC(C)=O)ccc3c2=O)cc1OC	14%	3%
CN(C(=O)c1ccc(NC(=O)C2CCCCC2)cc1)c1ccccc1	72%[activator]	2%
CCOC(=O)c1ccccc1NS(=O)(=O)c1ccc(N2CCCCS2(=O)=O)cc1	-7%	28%
COc1ccc(CCNC(=O)CCc2c(C)nn(CC(C)C)c2C)cc1OC	-2%	-5%
Cc1ccccc1C(=O)Nc1ccc(N(C)C)cc1	111%[activator]	23%
O=c1cc(CN2CCN(c3ccccc3O)CC2)c2cc(Cl)c(O)cc2o1	4%	-3%
CCCCNC(=O)C[C@@H]1C(=O)N(Cc2ccc(OC)cc2)/C2=C/CCCCC[C@@]21C(=O)OCC	-4%	199%[activator]
O=C(Cc1ccc(Br)cc1)Nc1ccccc1C(=O)O	62%[activator]	?
O=C(COC(=O)c1cnc2ccccc2n1)NC1CCCCC1	8%	-19%
CCOc1ccc(CCNS(=O)(=O)c2cc(Br)cc3c2N(C(C)=O)CC3)cc1OCC	-19%	156%[activator]
COCCCn1c(=O)c2sccc2n2c(CCCC(=O)NCc3ccc(F)cc3)nnc12	-7%	5%
Cc1cccc(NC(=O)N2CCC(CN3CCCCCC3)CC2)c1C	-20%	-4%
Cc1oc2cc(OC(=O)N3CCOCC3)ccc2c(=O)c1Oc1ccccc1Br	-6%	-9%
NC(=O)c1cc(Cc2ccccc2)sc1NC(=O)c1cccs1	220%[activator]	16%
Fc1ccc(/C=N/Nc2ccc(Cl)cc2)cc1F	47%[activator]	19%
COc1ccc(C(=O)c2sc(Nc3ccc(C(C)C)cc3)nc2N)c(OC)c1OC	?	?
COc1ccc(CNC(=O)c2cc3ccccc3[nH]2)cc1	129%[activator]	44%[activator]
Cc1cccc(-c2nnc(SCC(=O)Nc3ccc(C)c(C)c3)o2)c1	36%[activator]	-16%
Cc1cccc(C(=O)NC2CCC(C(F)(F)F)CC2)n1 (stereo not given)	0%	0%
CCC1CCCCN1CCCNC(=O)c1cn(CC)c2ccc(S(=O)(=O)N(C)C3CCCCC3)cc2c1=O (stereo not given)	-23%	50%[activator]
Cc1ccccc1CN1CCN(C(=O)c2cc3ccc(F)cc3nc2C)CC1	?	?
Cc1ccc(NC(=O)CN2N=C(c3ccccc3F)c3cc(Cl)ccc3S2(=O)=O)c(C)c1	3%	1%
CCCCn1nc(C(=O)Nc2cc(Cl)ccc2C)c2ccccc2c1=O	3%	-3%
O=C(c1ccc2c(c1)N(Cc1cccc(Cl)c1)C(=O)c1ccccc1S2=O)N1CCC(Cc2ccccc2)CC1 (stereo not given)	-18%	-12%
Cc1cc(C(=O)OCC(=O)Nc2cc(C)on2)c2ccccc2n1	15%	8%

By substructure: the entries above with a cyano group.
SMILES	2A firefly	2A Renilla
CCCCCCCCOc1ccc(C(=O)Oc2ccc(C#N)cc2)cc1	18%	8%
CC(Nc1oc(-c2ccc(COc3ccc(Cl)cc3)o2)nc1C#N)c1ccccc1 (stereo not given)	-12%	-12%

(further entries)
SMILES	2A firefly	2A Renilla
Cc1ccc(S(=O)(=O)n2nc(C)c(S(=O)(=O)N3CCCCC3)c2C)cc1	-9%	3%
COc1ccc(C(=O)c2cn(Cc3ccc(F)cc3)c3c(F)cc(F)cc3c2=O)cc1	-10%	5%
CC(=O)Nc1nonc1-c1nnc(SCc2ccc(C)cc2)n1C	100%[activator]	-3%
CCc1ccc(Oc2c(C(F)(F)F)oc3c(CN4CCN(C)CC4)c(O)ccc3c2=O)cc1	6%	29%
COC(=O)c1ccc(CNC(=O)NCC2(c3ccccc3)CC2)cc1	2%	6%
N#Cc1c(-c2ccccc2)cc(-c2cccs2)nc1SCS(=O)Cc1ccc(Cl)cc1 (stereo not given)	-11%	2%
Cc1ccc(Oc2cc(C#N)c3ccccc3n2)cc1C	21%	9%
COc1ccc(C2=C(C(C)=O)Sc3nnc(-c4ccc(OC)cc4)n3N2C(C)=O)cc1	46%	33%
Nc1nnc2c(n1)[nH]c1ccccc12	20%	-8%
N#Cc1ccccc1Cn1c(=O)n(Cc2ccc(C(=O)NC3CCN(Cc4ccccc4)CC3)cc2)c(=O)c2ccccc21	-5%	-3%
CCN(CCCNC(=O)c1cc2c(=O)n(CC)c3ccccc3c2s1)c1cccc(C)c1	-22%	-6%
Cc1ccc(CNCc2ccc(-c3ccc(C(C)O)cc3)o2)cc1 (stereo not given)	13%	20%
CN(Cc1nc2ccccc2[nH]1)S(=O)(=O)c1ccc(Cl)cc1C(F)(F)F	220%[activator]	81%[activator]
CCCCOc1ccc(C(=O)CCN2CCCCC2)cc1	-6%	-15%
CC(=O)Nc1ccc(S(=O)(=O)N2CCC(NC(=O)CC3CCCC3)CC2)cc1	-2%	5%
COc1cccc(NC(=O)c2oc3ccccc3c2NC(=O)Cc2cccc(C)c2)c1	-6%	-4%
O=C(CSc1nc2ccccc2nc1Cc1ccc(Cl)cc1)N1CCc2ccccc21	19%	21%
Nc1c(Br)cc2oc(-c3ccccc3)nc2c1Br	197%[activator]	-4%
COc1ccc(CCCc2nnc(SCC(=O)Nc3ccc(Cl)cc3)o2)cc1	5%	-10%
Cc1ccc(C)c(NC(=O)CSc2nnc(C)n3c2cc2occc23)c1	-4%	-9%
CC1CCC(=NNC(=O)c2ccc(Br)o2)CC1 (stereo not given)	198%[activator]	27%
CCc1ccc(NC(=O)c2sc3nc4c(cc3c2N)CN(C(C)C)CC4)cc1	0%	25µM*
C(#CCN1CCN(C(c2ccccc2)c2ccccc2)CC1)COCc1ccccc1	10%	11%
COc1cc(C2CC(=O)N(c3ccc(C)c(Cl)c3)C3=C2C(=O)OC3)cc(OC)c1OC (stereo not given)	4%	-12%
Cc1ccc(C)c(NC(=O)Cn2ccn(-c3ccc(F)cc3)c(=O)c2=O)c1	-8%	-4%
Cc1[nH]c2ccccc2c1C(=O)C(=O)N(C)Cc1ccccc1	-17%	111%[activator]
Cc1ccccc1Cn1nnc2c(=O)[nH]c(C3CCCN(C(=O)c4ccc(C(C)(C)C)cc4)C3)nc21 (stereo not given)	-20%	-13%
CCCCCCCc1ccc(-c2ccc(OC)cc2)nc1	0%	1%[1.06 µM]
Cc1cc(C(=O)NC2CCN(C(=O)C3CC3)CC2)c2ccccc2n1	4%	-6%
CCCN1C(=O)c2cc(C(=O)NCc3ccc4c(c3)OCO4)nn2CC1(C)C(=O)NC1CCCC1 (stereo not given)	17%	-1%
C=CCNC(=S)NCc1ccc(F)cc1	28%	44%[activator]
Cc1ccc(C)c(NC(=O)c2nc(S(=O)(=O)Cc3ccc(F)cc3)ncc2Cl)c1	4%	4%
Cc1ccc(NC(=O)c2nn(-c3ccccc3)c(=O)c3ccccc23)cc1S(=O)(=O)N(C)C	33%	16%
CCCOc1ccc(NC(=O)CC2C(=O)N(c3ccc(F)cc3)C(=O)N2CC(C)C)cc1 (stereo not given)	-21%	-7%
CCOc1cccc2cc(-c3cc(=O)oc4cc(OCC(=O)OC(C)(C)C)ccc34)c(=O)oc12	11%	18%
Cc1ccc(C)c(-c2cc3ccccn3c2)c1	-10%	-6%[1.06 µM]
O=C(CSC1=Nc2ccccc2N=C(c2ccc(F)cc2)C1)NCc1ccccc1	47%[activator]	2%
O=C(Cn1c(=O)n(Cc2ccccc2)c(=O)c2sc3ccccc3c21)Nc1ccc(F)cc1	-7%	-9%
Cc1cc(Br)ccc1NC(=O)c1nc2ccccc2nc1N1CCCCC1	0%	-9%
CCOC(=O)c1sc2ccccc2c1S(=O)(=O)Nc1cccc(C(F)(F)F)c1	-20%	175%[activator]
Cc1cccc(OCC(=O)Nc2onc3c2CC(C)CC3)c1 (stereo not given)	113%[activator]	2%
Cc1cccc(C(=O)OCc2cc(=O)n3nc(-c4cccs4)sc3n2)c1	14%	-11%
COc1ccc(C2(N3CCN(c4cc(C)ccc4C)CC3)C(=O)c3ccccc3C2=O)cc1	-1%	2%
Cc1ccc(CNC(=O)COC(=O)c2ccc(C3Nc4ccccc4S(=O)(=O)N3)cc2)cc1 (stereo not given)	-3%	0%
CN(C)CCSc1nc(N2CCCCC2)c2c(c1C#N)CCCC2	-16%	-14%
CCOC(=O)c1[nH]c2ccccc2c1NC(=O)c1cc(OCC)c(OCC)c(OCC)c1	-16%	-5%
O=C(CCCc1nc2ccccc2s1)NC1CCSc2c(F)cccc21 (stereo not given)	18%	-2%
Cc1ccc(-c2noc(C(C)NC(=O)c3ccco3)n2)cc1 (stereo not given)	-13%	-1%
